High-throughput results deposited in PubChem by National Center for Advancing Translational Sciences (NCATS).
Menin MLL FP FL: inhibitors of human menin-MLL interaction, wild-type MLL peptide. Fluorescence polarization, fluorescein-MLL peptide displacement from menin. FP activity change, % at 61.4 µM. 290,000 tested, under 10 active; inconclusive = falling polarisation curve, or a change in total fluorescence; inactive = total fluorescence flat and polarisation flat or rising; no compound was filed as active; the % refers to the polarisation; negative = inhibition;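 also: % of control where 0% means no effect; inhibitors lower the polarisation; unlabelled MLL peptide was the positive control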
TRPML1 inh: human mucolipin-1 channel inhibition | TRPML1-inducible cells, Ca2+ dye fluorescence, FDSS; stronger effect = lower value; inhibition of EC80 agonist-evoked calcium signal | activity change, negative = inhibition, % (no concentration beside the values) | actives 0.02% (n = 390,000) | AID 624415; in the data active means activity change below about -50%; inconclusive means about -30% to -50%; inactive means above about -30%;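 also: stimulus is agonist 54-4 at its EC80 concentration; % is scaled to controls: 0 for no effect and ±100 for the full control effect; compound concentration not given in the record; the text of the record puts the active cut at -80%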
Target sequence (Q9GZU1 whole entry, looked up): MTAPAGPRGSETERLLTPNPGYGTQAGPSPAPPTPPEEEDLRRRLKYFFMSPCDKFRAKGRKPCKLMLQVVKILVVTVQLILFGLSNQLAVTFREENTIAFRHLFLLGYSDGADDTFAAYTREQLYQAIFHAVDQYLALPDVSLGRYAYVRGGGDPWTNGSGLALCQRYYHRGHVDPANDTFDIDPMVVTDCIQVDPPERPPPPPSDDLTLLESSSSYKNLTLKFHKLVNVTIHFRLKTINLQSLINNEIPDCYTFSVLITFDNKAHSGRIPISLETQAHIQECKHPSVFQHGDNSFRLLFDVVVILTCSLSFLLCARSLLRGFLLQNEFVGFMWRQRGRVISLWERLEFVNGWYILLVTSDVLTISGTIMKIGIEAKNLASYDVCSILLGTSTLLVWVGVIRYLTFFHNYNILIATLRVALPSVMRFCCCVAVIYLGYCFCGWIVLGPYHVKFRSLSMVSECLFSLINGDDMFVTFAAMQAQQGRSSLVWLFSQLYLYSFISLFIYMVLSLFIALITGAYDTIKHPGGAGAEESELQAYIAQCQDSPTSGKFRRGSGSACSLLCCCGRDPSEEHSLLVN
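TRPML1-DL cells, Tet-induced overnight (~16 h, 37 °C) at 1,500 cells/well, were loaded with Ca8 no-wash dye plus quencher for 45-90 min at room temperature. Compounds were pinned during FDSS kinetic reading; agonist 54-4 at EC80 (4 uM final) then added.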
Sfp PPTase inh: inhibitors of Bacillus subtilis Sfp phosphopantetheinyl transferase; Q9F4F7; Biochemical Sfp PPTase activity, qHTS; Potency, µM, for the others: max response, negative = inhibition, most hits filed as inhibitors; actives 3.5% (n = 310,000); active = well fitted inhibition curve with a large enough effect; inconclusive = small, poorly fitted or top-dose-only effect, or another doubt; inactive = no such curve, though single readings can be large or run the other way;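 also: the enzyme is Sfp with the accession as filed and its product quenches rhodamine fluorescence; potency is read from the fitted curve at half-maximal effect; 0% = enzyme reaction without inhibitor and -100% = no enzyme wells; top concentration of the series not given in the record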
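After 15 min at room temperature with compound, 15 nM Sfp received 5 uM rhodamine-CoA plus 12.5 uM BHQ-2-ybbR (50 mM Hepes pH 7.6, 10 mM MgCl2). Rate came from the fluorescence difference over 30 min, ex 525/em 598 nm.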
ClpP mod: qHTS Assay for Activators of ClpP | ATP-dependent Clp protease proteolytic subunit (Bacillus subtilis (strain 168)), P80244 | purified B. subtilis ClpP, FRET peptide cleavage, 20 min | Potency, µM (highest dose often 57.5 µM), for the others: at the highest dose activity change, negative = active | actives 1.9% (n = 340,000); active = well fitted falling curve with a large enough effect; inconclusive = small, poorly fitted or top-dose-only effect; inactive = no such curve, though single readings can be large or run the other way; also: potency is read from the fitted curve at half-maximal effect; the source files actives as falling curves though it sought activators and does not explain the sign; nearly all actives have a fitted effect of over 65% in size; many hits overshoot -100%
Target sequence (P80244 whole entry, looked up): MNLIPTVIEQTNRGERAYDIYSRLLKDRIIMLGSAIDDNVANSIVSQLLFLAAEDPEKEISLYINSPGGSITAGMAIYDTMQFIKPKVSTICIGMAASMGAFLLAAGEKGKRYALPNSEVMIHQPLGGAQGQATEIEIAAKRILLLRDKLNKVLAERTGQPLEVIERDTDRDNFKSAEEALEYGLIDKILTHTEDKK
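Purified B. subtilis ClpP, 10 microg/mL final in Tris/HCl pH8 with KCl, BSA, glycerol and Tween-20, cleaved an Abz/nitrotyrosine-quenched decapeptide. Fluorescence (ex 320, em 430) was read at 0 and 20 min at room temperature. Delta was normalized to 5.8 microM ADEP and DMSO/no-enzyme controls.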
TRPV1 PAM: enhances activation of the human vanilloid receptor TRPV1. Q8NER1. TRPV1-expressing cells, Fluo-8 calcium influx, capsaicin EC20 potentiation; host cell line not named in the record; control for the full effect not named in the record. potentiation, % at 8.33 µM. actives 0.02% (n = 320,000). AID 540277; active means potentiation above 80%; inconclusive means 30% to 80%; inactive means below 30%; also: 0% is about no effect
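Cells expressing TRPV1 were dye-loaded with Fluo-8 and read kinetically: 10 s baseline, 3 min after compound (agonist portion), then 2 min after EC20 capsaicin (allosteric enhancer portion). Calcium-bound dye fluorescence at 480/520 nm.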
TRPML1 ag: activates the human TRPML1 channel; Q9GZU1; TRPML1-expressing cells, Ca2+ dye fluorescence, FDSS; host cell line not named in the record; reference of the full effect not given here; activation, % (no concentration beside the values); actives 0.12% (n = 410,000); in the data active = activation above about 50%; inconclusive = about 30% to 50%; inactive = below about 30%; also: 0% is about no effect; the text of the record puts the active cut at 80%
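Kinetic FDSS Ca2+ read in Tet-induced TRPML1-DL cells (ABD Ca8 dye plus quencher, 45-90 min RT loading): baseline, then compound, then 110 s agonist window; EC80 agonist 54-4 at 4uM final added afterwards for a 110 s antagonist window.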
PINK1 modulator: PINK1 expression modulation | Potency, µM (titrated, usually from 76.6 µM), inactives show top-dose activation (PINK1 increase), usual class: activators | actives 0.2% (n = 410,000) | AID 624263 | PINK1 immunofluorescence, high-content cytometry, 24 h; active = well fitted activation curve with a large enough effect; inconclusive = small, poorly fitted or top-dose-only effect; inactive = flat fitted curve, though single readings scatter; cell line not stated here;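 also: potency is read from the fitted curve at half-maximal effect; % of control where 0% means no effect; nearly all actives have a fitted effect of over 65% in size; a mitochondrial uncoupler was the plate control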
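A stable cell line was treated with compounds at 5 concentrations for 24 hours, with CCCP as control. PINK1 levels and mitochondrial localization were measured by immunofluorescence with mitochondrial, cell and nuclear markers after fixation, read by laser-scanning cytometry.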
An asterisk follows results filed as active; ? = inconclusive; . = no result given; & = joins results of further samples; [ ] = remark or other dose.

Order of results: Menin MLL FP FL, TRPML1 inh, Sfp PPTase inh, ClpP mod, TRPV1 PAM, TRPML1 ag, PINK1 modulator
CCOC(=O)C1(CC/C(C)=N\NC(N)=O)CC(C)OC1=O (configuration not stated)
  4.3, -11, 24%, 1.4%, 0, -0.3, 1.3%
COc1ccc(-c2c(C)nn3c(-c4ccccc4)cc(-c4ccccc4)nc23)cc1OC
  ., 25, ., 1.3%, 5, 0.9, 5.1%
COc1ccc(CCNC(=O)C(=O)NCC2OCCN2S(=O)(=O)c2ccc(Cl)cc2)cc1OC (configuration not stated)
  2.0, 18, 4%, -0.4%, 18, -0.2, 0.4%
Cc1nnc(SCC(=O)N2c3ccccc3C(C)(c3ccccc3)CC2(C)C)s1 (configuration not stated)
  1.9, -7, -16%, -1.5%, 2, 0.9, 18%
Cc1nn(CC#N)c(=O)n1-c1ccccc1F
  3.2, 19, 11%, 0.8%, 2, 0.4, -1.3%
COc1cccc(NC(=O)Cn2c(CCC(=O)O)ccc2-c2cccs2)c1
  2.7, 19, 14%, ., 7, 1.0, -0.7%
CC(C)Oc1ccc2c(=O)c(-c3ccccc3)coc2c1
  -0.9&0.9&-3.6, 13, -8%&2%&14%, -1.2%, -9&-3, 2.7, 6.1%
COc1ccc(CCNC(=O)/C=C/c2ccco2)cc1OC
  ?, 7, 45µM*, -1.1%, -12, -1.2, -1.1%
Cc1ccc(NC(=O)c2nc[nH]c2C(=O)NCc2ccccc2)cc1
  ., 42, ., 38%, -11, 1.6, 10%
O=c1cc(-c2ccccc2)c2c(O)cc(O)cc2o1
  13, -4, ?, -4.8%, 5, -0.8, -0.1%
Cc1ccc(OCC(=O)N2CCC3(CC2)CC(=O)c2ccccc2O3)cc1
  ., 6, ., ., -8, -0.9, -0.7%
COc1ccc(/C=N/NC(=S)SC)cc1OC
  5.6, 5, 10%, -0.3%, -6, 0.1, 0.4%
N#CC1=C(N)OC2=C(CCc3ccccc32)C1c1ccccc1Cl (configuration not stated)
  5.3, 17, -25%, -13%, -13, 1.4, -3.2%
CN1c2ccccc2C(C)(C)C12CC(c1ccc(S(=O)(=O)N3CCCCC3)cc1)=NO2 (configuration not stated)
  6.6, 33, 17%, -1.0%, -10, 0.0, 0.4%
O=C(COC(=O)c1cc(S(=O)(=O)N2CCOCC2)ccc1F)Nc1c(Cl)cccc1C(F)(F)F
  ., 15, ., -4.0%, -2, -0.1, -0.1%
O=C(CN(CCO)c1ccccc1)Nc1ccc(Cl)c(S(=O)(=O)N2CCOCC2)c1
  1.5, -11, 12%, ., -14, 0.5, -0.3%
Cc1ccc(-c2cc(C(F)(F)F)n3nc(C(=O)Nc4c(C)n(C)n(-c5ccccc5)c4=O)cc3n2)cc1
  0.3, 4, -9%, 0.2%, 0, -0.8, -0.5%
Cc1ccc(CNC(=O)C2C3C=CC(C3)C2C(=O)O)cc1 (configuration not stated)
  -0.7, 52, 10%, 0.4%, 1, -0.5, -0.1%
COc1cccc(C(=O)NCc2cn3ccsc3n2)c1
  -0.7, 2, 17%, 0.1%, 4, -0.1, -0.1%
CC(=O)Nc1nnc(COc2ccc(Cl)cc2)s1
  -1.1, 6, -20%, -15%, -4, -1.0, 1.0%
COc1ccc(-c2nc(CS(=O)CC(=O)N3CCN(C)CC3)c(C)o2)cc1OC (configuration not stated)
  -1.1, -4, 9%, 3.0%, -5, -0.4, 0.2%
COc1ccc(C(=O)N2CCC3(CCCN(Cc4cc(C(F)(F)F)cc(C(F)(F)F)c4)C3)CC2)cc1
  10, ., 14%, ., ., ., 5.0%
Cc1ccccc1-c1nc(SCC(=O)NCC2CCCO2)c2c(=O)n(C)c(=O)n(C)c2n1 (configuration not stated)
  ., 4, ., -1.8%, ., 1.5, 0.1%
O=C(CSc1n[nH]c(=O)n1C1CC1)Nc1ccc(F)c(Cl)c1
  ., 8, ., ., ., 0.3, 1.5%
COc1ccc(-c2c3c(=O)n(C)c(=O)n(C)c3cn2-c2cccc(OC)c2)cc1
  0.5, 7, 4%, -8.9%, 28, 0.7, .
CC(C)[C@H](NC(=O)N1CC(=O)Nc2ccccc21)C(=O)N[C@@H](C(=O)O)c1ccccc1
  -0.1, -11, 5%, -3.1%, 17, -0.4, 0.2%
COC(=O)c1ccc(NC(=O)CC(=O)Nc2ccc(C(=O)OC)cc2)cc1
  -8.9, -5, 1%, 0.1%, 4, 0.5, 3.7%
COC(=O)c1cccc(Nc2cc(C)nc(-c3ccccc3O)n2)c1
  0.1, 15, ?, -2.5%, 9, -0.8, 4.2%
COc1ccccc1NC(=O)COC(=O)Cn1c(C)csc1=O
  ., -4, ., -1.4%, ., 0.1, 1.0%
O=C(NC1CCS(=O)(=O)C1)/C(=C\c1ccco1)NC(=O)c1ccccc1 (configuration not stated)
  -5.7, 13, -13%, ., 8, -0.9, 0.5%

Continued, starting with the last 2 of the part before.
Order of results: Menin MLL FP FL, TRPML1 inh, Sfp PPTase inh, ClpP mod, TRPV1 PAM, TRPML1 ag, PINK1 modulator
COc1ccccc1NC(=O)COC(=O)Cn1c(C)csc1=O
  ., -4, ., -1.4%, ., 0.1, 1.0%
O=C(NC1CCS(=O)(=O)C1)/C(=C\c1ccco1)NC(=O)c1ccccc1 (configuration not stated)
  -5.7, 13, -13%, ., 8, -0.9, 0.5%
O=C(Nc1ccccc1F)c1cc2c(s1)-c1ccccc1S(=O)(=O)C2
  2.5, ., 6%, 3.7%, 7, ., 18%
O=C(NCC1CCCO1)c1ccc(NS(=O)(=O)c2cccc([N+](=O)[O-])c2)cc1 (configuration not stated)
  -1.8, 22, -9%, -1.0%, 5, -0.5, 1.5%
CCOC(=O)N1CCc2c(sc3nc(SC(C)C)n(N)c(=O)c23)C1
  0.3, -11, -8%, 1.3%, 7, -1.1, 1.4%
N#CCCn1c(=O)c(-c2ccc(Cl)cc2)nc2cnc(Oc3cccc(Cl)c3)nc21
  ?, ., 0%, ., ., ., 19%
COCCN1C(=O)C(=O)/C(=C(/O)c2ccc3c(c2)OCCO3)C1c1ccc(C(=O)OC)cc1 (configuration not stated)
  0.4, -6, 10%, -11%, 3, -0.4, 0.0%
O=C(NC1CCCC1)C1CCN(C(=O)c2ccc(-c3ccccc3)cc2)CC1
  -0.7, 16, 7%, -2.5%, -10, 0.5, -1.0%
Cc1ccc(NN2C(=O)C=CC2=O)cc1
  3.1, 2, 16%, -8.6%, 5, -0.7, 2.1%
COc1ccc(CCNC(=O)C(=O)NCC2OCCN2S(=O)(=O)c2ccc(C)cc2)cc1OC (configuration not stated)
  -7.4, 26, 10%, -0.7%, 12, 1.0, 0.1%
CCC1(C)Cc2c(C#N)c(N)n(-c3ccccc3)c(=O)c2CO1 (configuration not stated)
  0.4, -4, 8%, -12%, 16, -0.4, 3.2%[38.3 µM]
O=C(C1CCCN(Cc2ccccc2Cl)C1)N1CCCCC1 (configuration not stated)
  -10, -3, -25%, 1.8%, -11, -0.5, 2.4%
O=C(C1CCC1)N1CCN(S(=O)(=O)c2ccc(Br)cc2Cl)CC1
  ., -5, ., -1.4%, -8, -0.2, -0.3%
COc1ccc(CCNc2nc(SCc3cccc(F)c3)nc3ccccc23)cc1OC
  ., 7, ., 0.1%, ., 3.7, 0.5%
CC(Nc1cccnc1)=C(C#N)C#N
  -1.6, -1, 13%, 0.0%, -2, 2.0, 1.2%
CCCCCC(=O)N1CCN(S(=O)(=O)c2ccc3c(c2)OCCO3)CC1
  ., -7, ., -2.5%, 7, -0.5, -0.7%
O=C(Nc1ccc2oc(-c3ccc4ccccc4c3)nc2c1)c1ccc2c(c1)OCCO2
  3.8, 16, -4%, 23%, 2, -0.7, ?
NC(=O)c1ccc(NCCc2ccco2)cc1
  ., ., ., -21%, ., -0.3, 0.1%
COCCCn1cc(CN(C)C2CN(Cc3cn(CCCOC)nn3)S(=O)(=O)C2)nn1 (configuration not stated)
  ., ., ., -3.3%, ., 0.3, 0.1%
CCOC(=O)c1ccc(NC(=O)c2ccc(OC(C)C)c(OC)c2)cc1
  0.1, -11, 4%, -1.2%, -5, 0.3, -0.4%
CCn1nnc(NC(=S)NC(=O)c2ccc(-c3cccc(Cl)c3)o2)n1
  -1.1, 2, 50µM*, ., 4, 1.6, -1.0%
COc1cc(CCC(=O)N2CC(C)OC(C)C2)cc(OC)c1OC (configuration not stated)
  ., 0, -3%, 0.9%, 0, 1.7, -0.4%
CC1=C(C(=O)Nc2ccccc2)C(c2ccco2)NC(=O)N1 (configuration not stated)
  ., -6, ., -0.6%, ., 2.9, -0.4%[38.3 µM]
CCc1ccccc1Nc1nn2c(=O)c3ccc(C(=O)NC(C)c4ccccc4)cc3nc2s1 (configuration not stated)
  ., 10, ., -6.6%, ., 1.2, 0.7%
COc1ccc(Cl)cc1NC(=O)NCc1ccc2c(c1)OCO2
  ., -6, 11%, 2.3%, -8, -0.8, 5.4%
Cc1ccc(C2(c3noc(CN(C)CCCN4CCOCC4)n3)CCCC2)cc1
  0.4, ., 9%, ., -3, ., .
O=C(NCC1CC1)c1cccc2c(-c3ccc(F)c(F)c3)coc12
  ., 31, ., -8.1%, ., 1.5, 0.0%
O=C(NCc1ccco1)c1cc(S(=O)(=O)N2CCOCC2)ccc1Cl
  6.3, 38, -22%, 0.6%, -2, -0.7, 0.0%
Cc1cc(N2CCCC2=O)cc(C)c1CN1C(=O)c2ccccc2C1=O
  0.3, 33, 2%, -0.7%, 13, 0.2, 2.9%[38.3 µM]
CCn1cc(C(=O)N[C@@H](C)C(=O)NCCCO)c(=O)c2cc3c(cc21)OCO3
  4.0, 20, 10%, ., 2, 0.6, -1.0%
Cc1cccc(-c2ccc3[nH]c4c(c3c2)CCN2C[C@@H]([C@H](C)OC(=O)Nc3ccccc3C)[C@@H](N(C)C(=O)Nc3ccccc3C)C[C@@H]42)c1
  ., -7, ., -5.5%, ., -0.4, 13%
CC(=O)Nc1c(-c2ccc(Cl)cc2)c(=O)c2ccccc2n1C
  0.5, -7, 13%, 0.7%, 4, -1.1, 3.7%
Cc1ccc(-n2cc(-c3ccccc3)c3c(N4CCN(C)CC4)ncnc32)cc1
  2.1, -22, -11%, ., -8, -0.6, -1.0%
CCN(CC)CCn1c(=N)n(CCO)c2ccccc21
  -2.4, 37, 21%, 3.9%, -4, -0.7, -4.5%
